Screening results as filed in PubChem.
Rango dissoc inh: qHTS Assay for Inhibitors of RanGTP induced Rango (Ran-regulated importin-beta cargo) - Importin beta complex dissociation; Snurportin-1 (Homo sapiens) + GTP-binding nuclear protein Ran (Homo sapiens) + Importin …; Biochemical FRET Rango-importin beta, RanGTP-induced dissociation; Potency, µM (titrated, usually from 46.1 µM), without a hit: top-dose activity change, negative = inhibition; 340,000 tested, 0.071% active; AID 540253, 2011; active means falling FRET ratio curve, often poorly fitted, with flat reads before Ran was added; inconclusive means other falling curves, or compound fluorescence or quenching; inactive means flat or rising ratio curve;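 also: potency is read from the fitted curve at half-maximal effect; % of control where 0% means no effect; nearly all actives have a fitted effect of over 45% in size; -100% = wells without RanGTP and RCC1; the record marks most hits as doubtful in a second field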
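Compounds preincubate 5 min with complex of recombinant Rango and importin beta in PBS with 1 mM DTT. Ran (0.6 uM) loaded with 2 mM GTP plus 0.2 uM RCC1 starts dissociation; FRET is recorded 45 min later.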
GLA inh pH 4.5: qHTS Assay for Inhibitors of Human alpha-Galactosidase at pH 4.5; purified enzyme, 4-MU-alpha-Gal fluorescence, pH 4.5; activity change, negative = inhibition, % at 105 µM; 230,000 tested, under 10 active; AID 1467, 2008; inconclusive = small, poorly fitted or top-dose-only inhibition, or a rising curve; inactive = flat fitted curve, though single readings scatter; no compound was filed as active;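 also: 0% = full activity with enzyme and -100% = basal without enzyme; dose as in the result columns while the protocol names 77 µM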
Target sequence (P06280 whole entry, looked up): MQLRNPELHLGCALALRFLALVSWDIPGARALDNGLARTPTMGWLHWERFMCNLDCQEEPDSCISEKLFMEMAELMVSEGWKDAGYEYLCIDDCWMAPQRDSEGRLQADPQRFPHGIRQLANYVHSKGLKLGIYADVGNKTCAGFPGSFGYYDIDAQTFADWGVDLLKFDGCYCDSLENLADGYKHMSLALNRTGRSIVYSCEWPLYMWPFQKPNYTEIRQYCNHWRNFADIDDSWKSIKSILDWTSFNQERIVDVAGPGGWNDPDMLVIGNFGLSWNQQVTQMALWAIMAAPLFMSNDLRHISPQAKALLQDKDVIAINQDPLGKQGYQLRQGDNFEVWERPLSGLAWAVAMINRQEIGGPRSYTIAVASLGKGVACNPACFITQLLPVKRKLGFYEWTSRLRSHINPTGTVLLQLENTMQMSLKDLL
Rango-impB inh: qHTS Assay for Inhibitors of Rango (Ran-regulated importin-beta cargo) - Importin beta complex formation; Importin subunit beta-1 (Homo sapiens), Q14974; Rango CFP/YFP FRET sensor + importin beta, 45 min; Potency, µM (series often up to 92.2 µM), without a hit: at the top dose inhibition of complex formation; 340,000 tested, 0.031% active; AID 540263, 2011; active = rising FRET ratio curve, often small or poorly fitted; inconclusive = mostly compound fluorescence or quenching in the first reads; inactive = flat curves in all reads;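 also: potency is read from the fitted curve at half-maximal effect; 0% = DMSO wells and 100% = buffer wells lacking importin beta; nearly all actives have a fitted effect of over 15% in size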
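FRET biosensor Rango (snurportin 1 IBB between N-terminal EYFP and C-terminal Cerulean), 50 nM in PBS/1 mM DTT/0.02% Tween-20/0.1% BSA, preincubated 5 min RT with compound; 0.125 microM importin beta added, 45 min RT, CFP/YFP FRET ratio read.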
miR-21 FLuc: qHTS Assay for Modulators of miRNAs and/orActivators of miR-21; Potency, µM (titrated, usually from 38.3 µM), inactives show at the highest dose reporter change, positive = more light; HeLa miR-21 FLuc reporter, luciferase, 48 h; 340,000 tested, under 10 active; active = well fitted rising curve with a large enough effect; inconclusive = small, poorly fitted or top-dose-only effect; inactive = no such curve, though single readings can be large or run the other way;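 also: % of control where 0% means no effect; miR-21 action dims this reporter so a rising signal means less miR-21 action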
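Using DMEM plus 10% FBS, HeLa miR-21-FLuc cells are incubated with test compounds (final up to about 40uM) for 48 hours; firefly luciferase signal is then imaged following reagent-mediated lysis.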
* marks the source's active call; other numbers are inactive results; u = inconclusive; x = no result given; & = joins results of further samples. An excerpt; count on the stated rates, not on these rows.

SMILES | Rango dissoc inh | GLA inh pH 4.5 | Rango-impB inh | miR-21 FLuc
CN(C)c1ccc(/C=N\Nc2nc(-c3ccccc3)cc(=O)[nH]2)cc1 | 16% | -13 | 1.4% | -3%
Cn1c(=O)c2c(nc(CN3CCC(C(N)=O)CC3)n2Cc2c(Cl)cccc2Cl)n(C)c1=O | -7% | -10 | 1.7% | -12%
OCCN(CCO)Cc1csc2ccccc12 | 1% | 3 | 1.4% | 0%
NC(=O)c1ccsc1NC(=O)COC(=O)c1ccccc1F | 4% | x | -0.8% | x
Cc1cccc(C)c1NC(=O)CN(C)CC(=O)Nc1cc(Cl)ccc1C#N | -10% | 16 | -4.1% | 1%
Cc1cccc(NC(=O)c2nc[nH]c2C(=O)NCC(=O)OC(C)(C)C)c1 | -4% | -6 | 6.9% | 2%
CCOC(=O)c1cc2c(ccn2C)n1CC(=O)N(CC)CC | -8% | 7 | -0.7% | 2%
CCn1cc(C(=O)O)c(=O)c2cnc(N3CCN(C(=O)Nc4cccc5ccccc45)CC3)nc21 | x | -2 | x | -1%
COCCN(CCOC)S(=O)(=O)c1ccc(C(=O)NCCCN2CCOCC2)cc1 | 8% | -1 | -2.6% | 0%
CC(C)(C)C(=O)C[n+]1ccccc1 | -8% | -5 | -3.6% | -3%
CCOc1ccccc1/C=N\Nc1cnn(Cc2ccccc2)c(=O)c1Cl | 3% | -8 | -1.6% | 1%
COCCN(C(=O)CSc1cc(C)c2ccccc2n1)c1c(N)n(CC(C)C)c(=O)[nH]c1=O | -3% | x | 0.7% | x
Cc1cc(OCCCn2ccnc2)cc(C(C)C)c1 | -1% | -5 | -1.2% | -5%
COc1ccc(C(C)NC(=S)NC2CCCCC2)cc1OC (stereo unspecified) | 3% | x | -1.0% | -7%
COc1cc(/C=N/NC(=O)NC2CCCCC2)ccc1O | -2% | -10 | 0.1% | -34%
COc1ccc(C(C)=O)cc1CN(C)C | 0% | -2 | -5.1% | -4%
CCN(CC)S(=O)(=O)c1cc(NC(=O)COC(=O)c2c(C)noc2C)ccc1C | -1% | x | -4.8% | x
COc1ccc(C(=O)NCCn2nc(C)cc2C)cc1OC1CCN(C(C)=O)CC1 | 8% | x | -1.0% | -2%
O=[N+]([O-])c1ccc2nonc2c1Nc1ccccc1 | 8% | x | -2.6% | -15%
COc1ccc(C(=O)COC(=O)CCCC(=O)NC2CCCCC2)cc1 | -5% | x | -0.5% | 1%
Cc1ccsc1/C=N/NC(=S)NCc1ccccc1 | -2% | -14 | 1.6% | -20%
COc1cc(NC(=O)NCC2CCN(Cc3ccccc3F)CC2)cc(OC)c1 | -2% | x | -0.5% | -1%
CCCc1cc(C(=O)N2CCCC(CO)(CCCc3ccccc3)C2)n(C)n1 (stereo unspecified) | 4% | x | 0.9% | 5%
Cc1ccc(OCCC(=O)OCC(=O)Nc2ccc3c(c2)OCO3)cc1 | -15% | x | 1.5% | x
Cc1onc(-c2c(Cl)cccc2Cl)c1C(=O)NNC(=O)c1c(-c2c(Cl)cccc2Cl)noc1C | 13% | -11 | -0.4% | -3%

Compound profiles, as listed above. Screens in order: Rango dissoc inh	GLA inh pH 4.5	Rango-impB inh	miR-21 FLuc
`CCOC(=O)c1cc2c(ccn2C)n1CC(=O)N(CC)CC` is listed with -8%	7	-0.7%	2%
`Cc1ccc(OCCC(=O)OCC(=O)Nc2ccc3c(c2)OCO3)cc1` is listed with -15%	x	1.5%	x
`NC(=O)c1ccsc1NC(=O)COC(=O)c1ccccc1F` is listed with 4%	x	-0.8%	x
`CN(C)c1ccc(/C=N\Nc2nc(-c3ccccc3)cc(=O)[nH]2)cc1` is listed with 16%	-13	1.4%	-3%
`COCCN(C(=O)CSc1cc(C)c2ccccc2n1)c1c(N)n(CC(C)C)c(=O)[nH]c1=O` is listed with -3%	x	0.7%	x

(cont.)
SMILES | Rango dissoc inh | GLA inh pH 4.5 | Rango-impB inh | miR-21 FLuc
CC1(c2ccc(OC(F)F)cc2)NC(=O)N(CC(=O)N2CCN(C(=O)c3ccco3)CC2)C1=O (stereo unspecified) | -15% | x | 3.0% | x
CC(=O)NNC(=O)c1ccncc1 | 14% | -2 | 0.3% | 0%
COc1ccc(/C=C/C(=O)Nc2cccc(S(=O)(=O)NC3=NCCCCC3)c2)c(OC)c1 | -1% | x | -1.1% | x
Cc1ccc(NC(=O)C2CCCN2C(=O)OCc2ccccc2)cc1F (stereo unspecified) | -12% | x | -3.0% | 1%
CCCC(C(=O)NCc1ccc(OC)cc1)N(Cc1ccco1)C(=O)c1snc(C(N)=O)c1N (stereo unspecified) | -3% | -8 | -0.8% | 4%
CCOCCc1nnc(NC(=O)c2cccs2)s1 | -8% | -18 | 0.9% | -15%
CSc1nsc(SC)c1C(=O)N1CCN(S(=O)(=O)c2ccc(C)cc2)C1C (stereo unspecified) | -17% | -7 | 0.5% | 3%
Cc1cccc(NC(=O)CSc2nnc(CNC(=O)c3ccc(S(=O)(=O)N(C)C)cc3)n2-c2ccc(F)cc2)c1 | -8% | -22 | -0.9% | 0%
CC(C)c1onc(C(=O)N2CCCCC2)c1[N+](=O)[O-] | -11% | -5 | u | -2%
CCOc1ccc(S(=O)(=O)NCCC(=O)N2CCN(c3ccccc3O)CC2)cc1 | 0% | x | -1.9% | x
O=C(COC(=O)c1cccc(O)c1)Nc1ccc(S(=O)(=O)N2CCOCC2)cc1 | 2% | x | 1.5% | x
CCn1cc(C2=NC(C(C)C)CO2)c2ccccc21 (stereo unspecified) | 6% | 7 | 0.1% | -14%
COc1cc(NC(=O)Cn2cnc(S(=O)(=O)N3CCCC3)c2)cc(OC)c1OC | 0% | x | 1.7% | -4%&0%
CC1(S(=O)(=O)O)CC(=O)c2ccccc2C1=O (stereo unspecified) | 18% | x | -0.6% | u
O=[N+]([O-])c1ccc(N/N=C\c2cccn2-c2ccccc2)nc1 | u | u | u | -12%
Cc1ccc(N(C(C)C(=O)N2CCN(Cc3ccccc3)CC2)S(C)(=O)=O)cc1 (stereo unspecified) | 13% | x | -0.9% | 11%
Cc1nc(C)c(C(=O)OC(C)C(=O)Nc2ccc(F)cc2)s1 (stereo unspecified) | -4% | x | -1.4% | x
COc1ccc(CCNC(=O)c2ccc(N(C)S(=O)(=O)c3ccc(C)cc3)cc2)cc1OC | 11% | -3 | -10% | 8%
O=C(NCCCN1CCOCC1)c1cc(S(=O)(=O)N2CCN(c3ccccc3)CC2)ccc1Cl | 33% | x | 5.6% | x
COc1cc(OC)c(C(=O)NNC(=O)CN(C)S(=O)(=O)c2ccc(Cl)cc2)cc1OC | -10% | x | 1.6% | x
COc1ccc(OC)c(CN2CCN(C(=O)CNC(=O)c3cc(C)cc(C)c3)CC2)c1 | -16% | x | -2.2% | x
Cc1noc(C(=O)N2CCN(Cc3ccc4c(c3)OCO4)CC2)c1Cl | -9% | x | 3.1% | 5%
Cc1cccc(C)c1OCc1nnc(NC(=O)CSc2ccc(Cl)cc2)s1 | -1% | 0 | 0.3% | -2%
c1coc(-c2ccnc(-c3ccncc3)n2)c1 | -1% | 4 | -4.9% | -20%
COc1ccc(C(=O)NCC(=O)N2CCN(c3ccc(Cl)cc3)CC2)cc1 | 1% | x | -1.3% | 0%

4 entries picked at random from the list so far, as already listed:
SMILES | Rango dissoc inh | GLA inh pH 4.5 | Rango-impB inh | miR-21 FLuc
CC(=O)NNC(=O)c1ccncc1 | 14% | -2 | 0.3% | 0%
O=C(COC(=O)c1cccc(O)c1)Nc1ccc(S(=O)(=O)N2CCOCC2)cc1 | 2% | x | 1.5% | x
CCn1cc(C2=NC(C(C)C)CO2)c2ccccc21 (stereo unspecified) | 6% | 7 | 0.1% | -14%
Cc1nc(C)c(C(=O)OC(C)C(=O)Nc2ccc(F)cc2)s1 (stereo unspecified) | -4% | x | -1.4% | x

Other compounds follow.
SMILES | Rango dissoc inh | GLA inh pH 4.5 | Rango-impB inh | miR-21 FLuc
Cc1ccc(-n2c(SCC(N)=O)nc(O)cc2=O)cc1 | -1% | 0 | -1.7% | 0%
Cc1nc(Nc2nc3c(c(=O)[nH]2)CCC3)nc2ccccc12 | 9% | x | 0.5% | x
CC1CCCCN1Cc1nc2c(c(=O)n(C)c(=O)n2C)n1CCc1ccccc1 (stereo unspecified) | -7% | -8 | -0.6% | -5%
Nc1ccc(S(=O)(=O)Nc2ccc(Cl)nn2)cc1 | 3% | -8&-9&1 | 0.9% | 0%
CC(=O)Nc1ccc(OCC(O)CN2CCN(c3ccc(Cl)cc3)CC2)cc1 (stereo unspecified) | -19% | -1 | 2.7% | -4%
Cc1ccc(-c2noc(CCC(=O)NC3CCCc4ccccc43)n2)cc1 (stereo unspecified) | 10% | 0 | 0.6% | -4%
Cc1ccc(C(=O)NCc2ccco2)c(C)c1 | 4% | x | -0.5% | -28%
COc1cccc(NC(=O)C(=O)NCCC2CCCCN2S(=O)(=O)c2cccs2)c1 (stereo unspecified) | 3% | x | -4.5% | x
COc1ccccc1CNC(=O)CCN1C(=O)COc2ccc(C)cc21 | 25% | -2 | -0.4% | -2%
CCOC(=O)Cc1nnc(NC(=O)CSc2nc3ccccc3[nH]2)s1 | 2% | -4 | -0.6% | -1%
Cc1ccc(C(C)C)c(OCCCN(C)Cc2ccccc2)c1 | 6% | -3 | 4.8% | 3%
CCN(CC(=O)N(CC(C)C)c1c(N)n(CC(C)C)c(=O)[nH]c1=O)Cc1nc2ccccc2c(=O)[nH]1 | -11% | 2 | -3.3% | 1%
CC(C)Oc1nnnn1-c1ccccc1 | 1% | 7 | 5.9% | 5%
COc1cccc(/C=C/C(=C2\C(=O)N(c3ccccc3)N=C2C)c2ccc(Br)cc2)c1OC | 0% | x | 0.6% | x
O=S(=O)(NCc1ccncc1)c1ccc(Br)s1 | 1% | -10 | -5.1% | 12%
O=C(O)c1ccc2c(=O)n(-c3ccccc3F)c(=S)[nH]c2c1 | 8% | 4 | 1.8% | 0%
Cc1ccc(Nc2nc(N)nc(CSc3nnc(C)s3)n2)cc1 | -21% | 0 | u | -78%
CN1CCN(S(=O)(=O)c2csc(C(N)=O)c2)CC1 | 0% | x | 0.0% | 1%
CCOC(=O)C1(CCOc2ccccc2)CCN(Cc2cnc(SC)nc2)CC1 | -7% | 7 | -1.1% | 0%
O=C(CCc1nnc2ccc(NCc3ccccc3Cl)nn12)NCC1CCN(C2CCCC2)C1 (stereo unspecified) | 21% | x | -1.4% | -6%
C=CCCC(=O)NC1CC(C)(C)Cc2c1cnn2-c1cccc(F)c1 (stereo unspecified) | 6% | x | 6.3% | -6%
Cc1c(Cl)cccc1NC(=O)NC1CCCCC1 | 1% | 3 | -1.5% | -14%
CC(=O)NCc1nnc2c3ccccc3c(-c3ccccc3)nn12 | -16% | 7 | 0.4% | 0%
CCOC(=O)c1cc2sccc2n1CC(=O)Nc1ccc2c(c1)OCCO2 | 20% | 5 | -3.7% | -7%
CC(C)c1ccc(NC2CCCN(C(=O)c3cccs3)C2)cc1 (stereo unspecified) | 1% | x | -2.5% | -3%
OCCCn1c(C2CCCN2c2nc(-c3ccc(Cl)cc3)cs2)nc2cc(Cl)c(Cl)cc21 (stereo unspecified) | 7% | x | 0.2% | x
CCCC#CCN1CCN(C23CC4CC(CC(C4)C2)C3)CC1 | 0% | x | -0.4% | 3%
CCOc1cccc(C(=O)N/N=C/c2coc3ccccc3c2=O)c1 | -7% | x | 5.0% | 0%
COc1ccc(C(CC(=O)c2ccccc2)C2CCCCC2=O)cc1 (stereo unspecified) | 1% | 3 | 3.8% | 0%
Cc1cccc(NC(=O)c2cc(NC(=O)c3ccco3)ccc2N2CCCCC2)c1 | -1% | 9 | -4.6% | -8%
